# FGF22 binding: FGF22 (human) thermal shift binding. 340,000 compounds, 1.5% hits. recombinant FGF22 thermal shift, SYPRO orange fluorescence; percent of sucrose octasulfate shift, DMSO zero. Q9HCT0. calls only at 9.99 µM;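 active = melting point raised past a set limit in the mean and every replicate; inconclusive = no clear call; three in four hits are not shown here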
# Target sequence (Q9HCT0 whole entry, looked up): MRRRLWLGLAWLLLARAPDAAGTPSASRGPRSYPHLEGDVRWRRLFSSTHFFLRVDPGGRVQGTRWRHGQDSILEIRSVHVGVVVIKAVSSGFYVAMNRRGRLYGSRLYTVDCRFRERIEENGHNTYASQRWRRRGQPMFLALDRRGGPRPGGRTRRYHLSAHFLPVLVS
# Vif TR-FRET: inhibitors of Vif binding to APOBEC3G peptide, primary screen, biochemical, TR-FRET, GST-Vif 1-94, biotin-A3G peptide, dose response retest (AID 1117319) | 260,000 compounds, 0.57% hits | TR-FRET GST-Vif / biotin-A3G peptide binding; higher % means a stronger effect; test concentration not given here; strong numbers were not always called active | one-dose inhibition, %; IC50 in µM for titrated hits;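 active = above the screen mean plus three standard deviations and confirmed in dose response; inconclusive = results disagree or hit not tested in dose response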;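 note: Vif residues 1-94 fused to GST binding biotinylated APOBEC3G peptide 110-148; 0% = full assay without inhibitor and 100% = GST in place of GST-Vif; retest series ran down from 100 µM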
# HNF4A DNA FP: change in binding of human HNF4 alpha to DNA | P41235 | HNF4a-FITC DNA binding, fluorescence polarization, 1 h | activity change, % at 10 µM | 360,000 compounds, 0.3% hits; in the data active = activity change above about 30%, passing the limit was not always enough;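 note: controls were the assay level and a saturating level of protein; the project sought stronger binding though the title names inhibitors; some compounds called inactive have numbers as strong as hits; positive values seem to mean higher polarization but the record does not say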
# E coli growth: E. coli growth inhibition; OD600 absorbance (no concentration beside the values); AID 1053175; Escherichia coli growth, OD600, 23 h; hits give low values; 330,000 compounds, 0.21% hits;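 active = OD600 absorbance below the run mean of sample wells minus 3.6 SD, in any replicate, cut at about 0.56 in these data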;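 note: stock transfer was 300 nL into about 60 µL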
# MLL AF4-AF9 inh: MLL-AF4/AF9 protein interaction inhibition; P42568; AlphaScreen, biotin-AF4 peptide binding to FLAG-AF9; inhibition, % at 10 µM; 350,000 compounds, 0.47% hits; AID 651704;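 active = every replicate reaching a set inhibition limit, whatever the replicate mean, cut at about 25% in these data; inconclusive = mean inhibition reaches that limit but some replicates miss it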;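 note: 0% = plate neutral control median and 100% = total signal loss; the record names both 10 and 1 µM as test concentration; the first replicate is given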
# Target sequence (P42568 whole entry, looked up): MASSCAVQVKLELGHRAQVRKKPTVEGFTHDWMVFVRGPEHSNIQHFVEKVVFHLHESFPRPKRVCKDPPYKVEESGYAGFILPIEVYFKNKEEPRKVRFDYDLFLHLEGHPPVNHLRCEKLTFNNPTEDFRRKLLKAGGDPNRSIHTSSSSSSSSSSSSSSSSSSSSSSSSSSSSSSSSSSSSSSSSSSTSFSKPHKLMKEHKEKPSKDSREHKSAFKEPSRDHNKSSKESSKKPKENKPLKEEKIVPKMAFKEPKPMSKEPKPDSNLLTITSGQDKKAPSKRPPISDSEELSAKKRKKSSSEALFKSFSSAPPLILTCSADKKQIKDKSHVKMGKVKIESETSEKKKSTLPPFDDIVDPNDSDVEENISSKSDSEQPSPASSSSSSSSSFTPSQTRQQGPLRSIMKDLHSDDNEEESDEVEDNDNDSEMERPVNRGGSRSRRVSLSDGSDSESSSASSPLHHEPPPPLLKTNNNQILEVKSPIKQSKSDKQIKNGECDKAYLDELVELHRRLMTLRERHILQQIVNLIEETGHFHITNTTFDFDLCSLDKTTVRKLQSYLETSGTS
# UCH37 inh: inhibitors of human deubiquitinating enzyme UCH37; Q9Y5K5; purified proteasome/UCH37, Ub-AMC cleavage fluorescence; inhibition, % (no concentration beside the values); 330,000 compounds, 0.33% hits; AID 588478;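 active = mean of two replicates above 20%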;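 note: 0% = compound-free wells with enzyme and 100% = wells lacking proteasome; stock transfer was 100 nL into about 20 µL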
# Target sequence (Q9Y5K5 whole entry, looked up): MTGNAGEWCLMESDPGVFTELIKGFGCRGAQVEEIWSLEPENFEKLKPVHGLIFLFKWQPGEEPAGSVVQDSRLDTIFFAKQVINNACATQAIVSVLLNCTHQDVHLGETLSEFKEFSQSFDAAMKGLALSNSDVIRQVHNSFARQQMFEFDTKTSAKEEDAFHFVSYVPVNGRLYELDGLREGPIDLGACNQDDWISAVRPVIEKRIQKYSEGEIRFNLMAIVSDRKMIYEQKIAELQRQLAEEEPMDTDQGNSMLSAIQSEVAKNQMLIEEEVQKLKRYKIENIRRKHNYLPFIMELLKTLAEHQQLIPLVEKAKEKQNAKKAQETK
#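 Reagent: Ub-AMC substrate; assay system: Proteasome-associated human UCH37 deubiquitinase; controls: no-proteasome and no-compound wells; read-out: % inhibition of Ub-AMC cleavage fluorescence; timing: 30 min preincubation with enzyme, 25 min cleavage at room temperature; signal: AMC fluorescence from Ub-AMC cleavage, excitation 355 nm, emission 460 nm; buffer or medium: Tris-HCl pH 7.4 plus ovalbumin, ATP-MgCl2, DTT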
# RanGTP-Imp inh: inhibitors of RanGTP-importin-beta interaction, primary screen, biochemical, FRET, CFP-Ran, YFP-importin-beta, homogeneous | 300,000 compounds, 1.1% hits | inhibition, % (no concentration beside the values) | cell-free CFP-Ran/YFP-importin-beta FRET ratio;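 active = most replicates above 15%; inconclusive = exactly half above 15%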;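 note: 0% = DMSO wells and 100% = Ran loaded with GDP instead of GTP; wells of about 40 µL received 100 nL stock; the first replicate is given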
# An asterisk follows results filed as active; i = inactive; u = inconclusive; x = not tested or not shown; & = joins results of further samples. An excerpt (hit frequency here may not be typical).
SMILES,FGF22 binding,Vif TR-FRET,HNF4A DNA FP,E coli growth,MLL AF4-AF9 inh,UCH37 inh,RanGTP-Imp inh
CCCCOc1ccc(OCCCN2CCOCC2)cc1,i,x,1.6,0.618,7.0&1.2,-1.0,2.7
CC(=O)Nc1ccc(S(=O)(=O)Nc2nc3ccccc3nc2Nc2cccc(O)c2)cc1,x,6.8%,-1.0,0.726,-2.4,2.5,6.3
CCOc1ccc(C(=O)c2ccc([N+](=O)[O-])cc2Cl)cc1,i,x,-0.8,0.673,16.8,3.2,u
Cc1ccc2c(c1)N(CC(=O)N1CCN(c3ccccc3)CC1)C(=O)C(C)O2 (stereo not drawn),i,x,2.1,x,-3.9,x,0.7
COc1ccc2[nH]c(CN3CCN(CCC(C)C)C(CCO)C3)c(C)c2c1 (stereo not drawn),i,7.9%,-1.5,0.698,6.3,2.2,u
Cc1ccc(OCC(=O)N2CCN(C(=O)c3cccnc3)CC2)cc1,x,12.7%,-2.2,0.682,x,0.6,-0.1
COc1ccccc1CNC(=O)Cn1cnc2ccccc2c1=O,x,3.2%,4.8,0.645,x,2.2,0.1
CCn1c(=NC(=O)c2cccc(N3C(=O)CCC3=O)c2)sc2c(C)ccc(OC)c21,i,-16.3%,-0.3,0.688,-27.3,-184.6,-3.1
O=C(OCc1nnc(-c2ccccc2)o1)c1ccc2c(c1)OCCO2,x,u,1.2,0.659,x,-2.1,1.4
Cc1ccc(CNC(=O)C2CCC(=O)N2Cc2ccccc2Cl)cc1 (stereo not drawn),i,-3.1%,-2.1,0.686,-1.7,3.8,0.5
Cc1ccc(-c2cc(-c3ccccc3)nc(N)c2C#N)o1,i,-0.6%,12.7,0.673,0.2,-32.7,-3.7
CC(C1CC1)N(C(=O)c1ccccc1O)c1ccccc1 (stereo not drawn),x,1.4%,-0.3,0.707,x,-0.6,0.2
O=C1CC(c2ccc(Cl)cc2)n2nc(N3C(=O)CCC3=O)nc2N1 (stereo not drawn),i,-9.7%,-1.2,0.692,4.9,1.7,-0.6
COc1ccc(-n2c(SCC(=O)Nc3sc4c(c3C#N)CCCC4)nnc2-c2ccccc2OC)cc1,x,-6.1%,1.7,0.769,x,-2.2,1.5
CC[n+]1c(/C=C(\C)OC)sc2ccccc21,i,16.6%,3.9,0.664,-4.8,19.4,x
COc1ccccc1P(=O)(Cc1ccccc1[N+](=O)[O-])c1ccccc1 (stereo not drawn),i,x,-2.6,0.712,0.1,6.4,2.0
COc1ccc(/C=C2\SC(=S)N(CCCC(=O)Nc3cccc(C(=O)O)c3)C2=O)cc1OC,x,x,25.4,0.664,3.4,10.7,-36.7
N#CC(=C1CCCC1)c1nc(-c2ccccc2O)cs1,x,u,1.6,0.67,x,2.1,-3.2
COc1ccc2c(=O)c3ccccc3oc2c1,i,x,-6.1,0.726,-2.7,-1.5,6.0
CC1CCC(NC(=O)COC(=O)CSc2ccc(C(N)=O)cc2[N+](=O)[O-])CC1 (stereo not drawn),i,0.6%,-2.8,0.639,-1.3,1.4,3.8
CC1COC(=C2C(=O)OCC2C)C1 (stereo not drawn),i,-8.8%,5.3,x,-1.3,x,x
CCN(CCn1cccn1)C(=O)c1cc(COc2ccc(F)c(F)c2)on1,i,-6.0%,3.7,0.649,-6.7,3.7,-1.5
Cc1cccc(NC(=O)CCN2C(=O)C3C4C=CC(C4)C3C2=O)n1 (stereo not drawn),x,19.1%,0.0,0.727,x,4.9,2.3
Cc1cc(C)cc(C(=O)NCC(=O)OCN2C(=O)c3ccccc3C2=O)c1,i,x,-2.9,0.711,0.8,3.3,x
COc1cc(C(=O)NCCOc2cc(C)cc(C)c2)cc(OC)c1OC,i,-3.3%,1.9,0.68,-3.7,3.5,3.9

# The listing continues:
SMILES,FGF22 binding,Vif TR-FRET,HNF4A DNA FP,E coli growth,MLL AF4-AF9 inh,UCH37 inh,RanGTP-Imp inh
CCOc1ccccc1NC(=O)CC(O)(C(F)(F)F)C(F)(F)F,x,2.6%,-5.2,0.724,x,2.1,0.7
CC/C(C)=N/Nc1nc2c(c(=O)[nH]c(=O)n2C)n1CCc1ccccc1,i,1.6%,1.3,x,19.2,x,1.9
COc1cccc(NC(=O)CN(C)C(=O)c2ccc(NC(=O)CC3SC(N4CCCC4)=NC3=O)cc2)c1 (stereo not drawn),i,x,1.3,0.706,-1.6,2.2,x
O=C(COc1cccc(Br)c1)N/N=C1\CCSC1,x,5.5%,4.1,x,3.0,x,0.2
CCN1CCN(C(=O)CN2C(=O)c3ccccc3S2(=O)=O)CC1,i,-3.8%,-0.4,0.655,-2.4,0.9,5.4
Oc1ccc2ccccc2c1-c1sc(Nc2ccccc2)n[n+]1-c1ccc(F)cc1,i,x,-67.6,0.616,3.1,2.3,-3.2
CCCCNC(=S)Nc1cccc2cnccc12,i,x,-2.9,0.653,1.7,2.9,-2.4
CCOc1ccc(N(CC(=O)NCCSCc2ccccc2)S(=O)(=O)c2ccccc2)cc1,i,x,1.2,0.756,-2.8,4.7,-1.3
C=CCOc1c(CNc2ncn[nH]2)cccc1OCC,x,7.4%,0.0,0.694,x,3.2,2.1
COc1ccc(OC)c(S(=O)(=O)N/N=C\c2ccc3c(c2)OCO3)c1,i,x,1.2,x,-1.3,x,-0.1
O=c1oc2ccccc2c2c1ccc1ccccc12,i,0.0%,2.8,0.655,0.9,-60.2,x
C=CCc1ccc(OCCCCNC(C)CC)c(OC)c1 (stereo not drawn),x,-4.7%,0.1,0.723,x,1.2,-2.1
COCCCn1c(SCc2ccccc2)nc2cc(OC)c(OC)cc2c1=N,x,-11.0%,-1.1,0.743,x,-1.0,-3.3
CCc1ccc(-n2cc(-c3ccc(F)cc3)[n+]3c2SCCC3)cc1,i,x,-3.4,0.683,2.4,4.0,1.7
COc1ccc(N2CCN(C(c3ccccc3)c3nnnn3Cc3ccc(F)cc3)CC2)cc1 (stereo not drawn),x,10.2%&4.2%,-1.8,0.753,x,2.2,-0.2
CCOc1ccccc1NC(=O)c1ccc2ccccc2c1,i,x,0.2,0.662,-8.1,5.0,3.4
CC(C)C(NC(=O)OCc1ccccc1)C(=O)OCC(=O)N1C(C)CCCC1C (stereo not drawn),x,4.2%,0.8,0.698,x,3.8,-0.6
CC(C)OCCCNC(=S)NNC(=O)c1ccc(Cl)c(Cl)c1,x,10.0%,-1.0,0.699,-2.3,3.6,-0.1
O=C(CSc1nnc(CNC(=O)c2ccccc2)o1)NCc1ccccc1,i,u,-1.8,0.674,-2.3,3.4,-4.1
CCN1C(=O)c2ccccc2S(=O)c2ccc(C(=O)NCCN(CC(C)C)CC(C)C)cc21 (stereo not drawn),i,-1.0%,2.4,0.685,2.6,1.4,0.1
O=C(O)CCS(=O)(=O)Cc1ccccc1Cl,i,4.0%,-0.6,0.69,5.3,-0.6,-5.9
O=C(COC(=O)C1CC1)Nc1nc(-c2ccc(F)c(F)c2)cs1,i,x,0.1,x,-4.1,x,2.1
COc1ccc(/C=C/c2onc(C)c2S(=O)(=O)N2CCC(C(=O)N3CCCCCC3)CC2)cc1,i,x,-3.7,0.676,9.2,-11.3,0.9
CN(CC(=O)Nc1ccc(F)cc1)C(=O)COC(=O)CN1C(=O)NC2(CCCC2)C1=O,i,x,2.7,0.683,-1.5,0.7,2.8
CSc1cccc(NC(=O)C2CCCN(S(=O)(=O)c3cnc[nH]3)C2)c1 (stereo not drawn),i,u,-0.9,0.7,3.1,6.6,x

# Carrying on:
SMILES,FGF22 binding,Vif TR-FRET,HNF4A DNA FP,E coli growth,MLL AF4-AF9 inh,UCH37 inh,RanGTP-Imp inh
Cc1ccc2c(CC(=O)OC3CCOC3=O)coc2c1 (stereo not drawn),x,1.1%,3.9,0.674,x,2.5,-1.1
CCOc1ccc(-c2[nH]ncc2-c2ccccc2)c(O)c1,i,x,-1.3,0.692,6.3,1.1,1.7
C=CCN1C(=O)c2ccccc2NC1c1ccc(Br)s1 (stereo not drawn),i,x,-0.8,0.68,3.4,-28.1,-4.3
CCOc1ccccc1N(C)C(=O)c1nn(-c2ccc(OC)cc2OC)c(=O)c2ccccc12,i,12.3%,-1.5,0.69,2.3,3.1,5.1
COc1ccc(NC(=O)CSc2c3c(nc4ccccc24)CCC3)c(OC)c1,i,2.8%,-2.6,0.65,6.1,0.8,6.7
Cc1ccc(NC2=CC(=O)CC(C)(C)C2)cc1F,i,2.2%,-0.1,0.679,-0.4,4.0,5.1
COc1ccccc1N1CCN(S(=O)(=O)c2ccc3nc(-c4ccccc4)[nH]c3c2)CC1,i,x,2.1,0.722,-0.6,2.3,-0.5
CC(=O)Nc1cccc(NC(=O)CSc2ncc(C(=O)Nc3ccccc3)c(=O)n2C)c1,i,-13.8%,2.9,0.651,-0.9,-147.2,2.9
OCC[C@@H]1C[C@H](O)[C@@H](O)[C@]2(OCc3cc(C(F)(F)F)ccc32)O1,i,x,-0.6,x,-1.2,x,x
Cc1cccc(S(=O)(=O)NCCC(=O)OC(C)C(=O)NC(=O)NC2CCCCC2)c1 (stereo not drawn),x,-1.0%,-1.7,0.72,x,0.8,1.1
Cc1cc(C)cc(N2CCN(C(=O)N3CCOCC3)CC2)c1,x,0.4%,1.5,0.764,x,-0.4,1.3
COc1cc(OC)c(S(=O)(=O)Nc2ccc(C)cn2)cc1NC(C)=O,x,x,3.0,0.638,x,4.3,-0.1
Cn1c(SCC(=O)Nc2ccc(Br)cc2F)nnc1-c1ccco1,i,-3.9%,0.8,0.669,-2.9,1.5,3.0
COc1cccc(C(=O)NCC(=O)N/N=C/c2ccc3c(c2)OCO3)c1,x,-2.7%,1.5,x,0.7,x,2.0
O=C(COc1ccc2c(c1)CCC2)Nc1ccccn1,i,-4.7%,0.8,0.69,1.0,1.9,0.4
COc1ccc(N2CCN(Cc3nc4c(c(=O)n(C)c(=O)n4C)n3CC(C)=O)CC2)cc1,i,0.1%,2.6,0.648,u,5.7,4.0
COC(=O)c1ccc(COc2ccccc2/C=C(\C#N)C(=O)Nc2c(C)cccc2C)cc1,i,-2.9%,4.0,0.728,-0.8,1.2,-1.7
C/C(=N\NC(=O)c1ccco1)c1ccc(NC(=O)c2cccs2)cc1,x,-2.1%,-1.1,x,x,x,1.9
COc1cccc(NC(=O)CN(C)C(=O)C(CCSC)NC(=O)c2ccco2)c1 (stereo not drawn),i,-2.4%,0.8,0.647,3.3,3.8,x
COc1ccccc1C1CCN(Cc2cccc3ccccc23)CC1,i,-4.2%,-8.8,0.639,-1.7,-1.8,-1.3
C[C@H](CO)N1C[C@H](C)[C@H](CN(C)Cc2ccc(Oc3ccccc3)cc2)Oc2cc(Br)ccc2S1(=O)=O,i,-4.2%,2.4,x,2.6&1.9,x,x
C1CCCC(NC2=NCCO2)CCC1,x,-3.5%,-3.7,0.67,x,1.1,-0.5
CC(=O)N1CCN(C(=O)c2ccc(S(=O)(=O)Nc3ccccc3C)cc2)CC1,i,-0.6%,1.4,0.629,-0.3,-0.1,9.6
COc1ccccc1OCC(=O)NCCCN1CCOCC1,i,x,0.2,0.707,-3.6,2.5,4.7
COc1ccc(N(CC(=O)NCCSc2ccccn2)S(=O)(=O)c2ccccc2)cc1OC,i,7.8%,3.8,0.694,0.3,5.3,-3.4

# 2 entries from above in a different format:
canonical_smiles | FGF22 binding | Vif TR-FRET | HNF4A DNA FP | E coli growth | MLL AF4-AF9 inh | UCH37 inh | RanGTP-Imp inh
COc1ccc(N2CCN(Cc3nc4c(c(=O)n(C)c(=O)n4C)n3CC(C)=O)CC2)cc1 | i | 0.1% | 2.6 | 0.648 | u | 5.7 | 4.0
COC(=O)c1ccc(COc2ccccc2/C=C(\C#N)C(=O)Nc2c(C)cccc2C)cc1 | i | -2.9% | 4.0 | 0.728 | -0.8 | 1.2 | -1.7
